# ClpP mod: qHTS Assay for Activators of ClpP; Potency, µM (titrated, usually from 57.5 µM), inactives show top-dose activity change, negative = active; purified B. subtilis ClpP, FRET peptide cleavage, 20 min; ATP-dependent Clp protease proteolytic subunit (Bacillus subtilis (strain 168)), P80244; 340,000 tested, 1.9% active; active = well fitted falling curve with a large enough effect; inconclusive = small, poorly fitted or top-dose-only effect; inactive = no such curve, though single readings can be large or run the other way; further: potency means the concentration at half of the fitted maximal effect; the source files actives as falling curves though it sought activators and does not explain the sign; nearly all actives have a fitted effect of over 65% in size; many hits overshoot -100%
# Target sequence (P80244 whole entry, looked up): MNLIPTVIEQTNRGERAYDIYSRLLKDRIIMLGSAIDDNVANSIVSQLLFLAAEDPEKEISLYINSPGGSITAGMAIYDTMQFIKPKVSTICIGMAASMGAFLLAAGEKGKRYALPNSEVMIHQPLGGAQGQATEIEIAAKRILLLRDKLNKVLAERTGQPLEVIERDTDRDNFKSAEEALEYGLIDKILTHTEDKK
#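 ClpP 10 microg/mL final, pH 8 Tris/KCl buffer with BSA, glycerol, Tween-20; compound pinned in; FRET-FV substrate; RT 20 min; Ex320/Em430; ΔFRET vs ADEP 5.8 microM, DMSO, no enzyme.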
# TRPML1 blocker: blocks the human TRPML1 channel; 390,000 tested, 0.02% active; AID 624415; activity change, negative = inhibition, % (test concentration not listed); TRPML1-inducible cells, Ca2+ dye fluorescence, FDSS; stronger effect = lower value; inhibition of EC80 agonist-evoked calcium signal; in the data active means activity change below about -50%; inconclusive means about -30% to -50%; inactive means above about -30%;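 further: stimulus is agonist 54-4 at its EC80 concentration; on the % scale 0 is the no-effect control and ±100 the full control effect; compound concentration not given in the record; the text of the record puts the active cut at -80%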
# Target sequence (Q9GZU1 whole entry, looked up): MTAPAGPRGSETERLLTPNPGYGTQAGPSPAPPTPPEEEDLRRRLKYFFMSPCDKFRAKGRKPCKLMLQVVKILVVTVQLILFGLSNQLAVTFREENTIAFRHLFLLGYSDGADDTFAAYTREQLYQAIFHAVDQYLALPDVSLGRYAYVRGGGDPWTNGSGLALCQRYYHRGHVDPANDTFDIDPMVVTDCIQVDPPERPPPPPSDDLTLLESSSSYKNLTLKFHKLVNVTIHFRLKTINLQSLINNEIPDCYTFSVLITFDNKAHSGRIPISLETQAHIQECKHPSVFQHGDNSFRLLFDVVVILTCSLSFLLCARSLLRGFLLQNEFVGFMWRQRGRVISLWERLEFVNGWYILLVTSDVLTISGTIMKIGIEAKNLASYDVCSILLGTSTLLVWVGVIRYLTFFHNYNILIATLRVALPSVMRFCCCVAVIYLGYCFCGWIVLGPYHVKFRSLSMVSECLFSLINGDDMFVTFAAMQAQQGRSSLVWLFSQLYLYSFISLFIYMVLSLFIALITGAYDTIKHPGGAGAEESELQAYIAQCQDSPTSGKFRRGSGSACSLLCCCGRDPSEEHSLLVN
#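 TRPML1-DL cells, Tet-induced overnight (~16 h, 37 °C) at 1,500 cells/well, were loaded with Ca8 no-wash dye plus quencher for 45-90 min at room temperature. Compounds were pinned during FDSS kinetic reading; agonist 54-4 at EC80 (4 uM final) then added.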
# TRPML1 agonist: agonists of human TRPML1 channel. Q9GZU1. 410,000 tested, 0.12% active. activation, % (test concentration not listed). AID 624414. TRPML1-expressing cells, Ca2+ dye fluorescence, FDSS; host cell line not named in the record; reference of the full effect not given here; in the data active = activation above about 50%; inconclusive = about 30% to 50%; inactive = below about 30%; further: 0% is about no effect; the text of the record puts the active cut at 80%
#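 Kinetic FDSS Ca2+ read in Tet-induced TRPML1-DL cells (ABD Ca8 dye plus quencher, 45-90 min RT loading): baseline, then compound, then 110 s agonist window; EC80 agonist 54-4 at 4uM final added afterwards for a 110 s antagonist window.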
# gsp ag: agonists of gsp mutant (McCune-Albright syndrome); gsp mutant cells, cAMP HTRF, 30 min; control for the full effect not named in the record; Potency, µM (doses to about 76.9 µM), for inactives: top-dose activation (cAMP increase), actives largely listed as activators; 340,000 tested, 0.13% active; active = well fitted activation curve with a large enough effect; inconclusive = small, poorly fitted or top-dose-only effect, or another doubt; inactive = no such curve, though single readings can be large or run the other way; cell line not stated here;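 further: phosphodiesterase inhibitor Ro 20-1724 added with compounds to block cAMP breakdown; potency means the concentration at half of the fitted maximal effect; nearly all actives have a fitted effect of over 60% in size; about a fifth of the inactives were tested at one dose only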
#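 Cells stably selected in G418 were plated at 2000/well, grown 16-24 hr, then given compounds in DMSO with the PDE inhibitor […] (300 uM solution added) for 30 min at 37C; cAMP was read by HTRF.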
# Menin MLL FP FL: inhibitors of human menin-MLL interaction, wild-type MLL peptide. Fluorescence polarization, fluorescein-MLL peptide displacement from menin. FP activity change, % at 61.4 µM. 290,000 tested, under 10 active. AID 1766; inconclusive = falling polarisation curve, or a change in total fluorescence; inactive = total fluorescence flat and polarisation flat or rising; no compound was filed as active; the % refers to the polarisation; negative = inhibition;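 further: % of control where 0% means no effect; inhibitors lower the polarisation; unlabelled MLL peptide was the positive control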
# gsp antag: antagonists of gsp mutant (McCune-Albright syndrome). gsp-mutant cells, cAMP HTRF, 30 min; control for the full effect not named in the record. Potency, µM (highest dose often 76.9 µM), inactives show at the highest dose activity change, negative = inhibition, hits mostly inhibitors. 340,000 tested, 0.4% active; active = falling curve of any shape with a large fitted effect; inconclusive = falling curve, mostly with a smaller effect; inactive = flat or rising curve; cell line not stated here;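 further: intracellular cAMP measured with PDE inhibitor Ro 20-1724 present during compound exposure; potency means the concentration at half of the fitted maximal effect; on the % scale 0 is the no-effect control and ±100 the full control effect; nearly all actives have a fitted effect of over 65% in size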
#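 G418-selected cells were plated in DMEM/10% FBS for 16-24 h at 37C, then treated with compounds plus the PDE inhibitor […] (300 uM solution added) for 30 min at 37C. Intracellular cAMP was measured by HTRF after 30 min lysis at room temperature.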
# The depositor's hits bear a star; ? = inconclusive; . = not tested or not shown; [ ] = remark or other dose.
SMILES | gsp antag | TRPML1 blocker | ClpP mod | Menin MLL FP FL | gsp ag | TRPML1 agonist
Cc1c(O)ccc(C(=O)CN2CCN(Cc3ccccc3)CC2)c1O | ? | -4.6 | -3.9% | -0.9 | 9.5% | 0.7
C#CCOc1nc(OCC#C)nc(OCC#C)n1 | 3.7% | -26.1 | -2.1% | 0.5 | -21.2% | -0.6
COc1ccccc1/C=C/C=N/n1c(-c2ccco2)n[nH]c1=S | -32.6% | 32.8 | . | 2.9 | 15.7%[15.4 µM] | 5.0
CCN(CC)CCn1c(-c2ccccc2)csc1=Nc1ccccc1 | . | -15.9 | 1.0% | . | . | -1.2
CCOC(=O)COc1ccc([N+](=O)[O-])cc1-c1ccnc2cc(-c3ccc(C)cc3)nn12 | . | -2.3 | -0.6% | . | . | -0.4
COc1ccc(C=NNc2ccc(S(=O)(=O)Nc3ccccc3C(=O)O)cc2[N+](=O)[O-])c(OC)c1 | ? | -15.7 | -1.2% | . | -17.5% | 1.1
COc1cccc2cc(C(=O)NCC3CCCO3)c(=O)oc12 (stereo unspecified) | 14.2% | -2.7 | -1.0% | 1.4 | 1.7%[15.4 µM] | 0.3
Oc1[nH]c2c(Cl)cc(Cl)cc2c1N=NC(=S)NCC1CCCO1 (stereo unspecified) | 11.2% | -1.9 | 0.6% | 0.2 | -0.8%[15.4 µM] | 1.3
Cc1[nH]nc2c1C(c1ccsc1)C(C#N)=C(N)O2 (stereo unspecified) | 6.9% | -7.9 | 0.4% | 2.4 | -31.6%[inhibitor] | -0.2
CCCCc1nn2c(=O)cc(COC(=O)c3ccccc3NC(=O)C3CCCCC3)nc2s1 | . | 12.7 | -26.3% | . | . | 2.2
O=C(CSc1nc2c(oc3ccccc32)c(=O)n1-c1ccccc1F)Nc1ccccc1 | . | -4.5 | -3.5% | . | . | -0.3
C=CCN1CC(O)=C(c2ccccc2)C1=N | -0.4% | 1.8 | 0.4% | -0.4 | -16.8% | 0.4
COC(=O)N(NC(=O)C(O)(C(C)C)C(C)C)c1ccccc1 | 3.7% | 13.7 | . | 1.7 | 13.7%[15.4 µM] | 0.4
CCOC(=O)c1cnn(CCOC(=O)c2ccc(OC)cc2)c1NC(=O)c1ccc(OC)cc1 | -8.4% | 8.9 | -3.6% | 2.7 | 0.3% | 0.3
Cc1ccc(NC(=O)C2C(c3ccccc3)C2(Cl)Cl)c(C)c1 (stereo unspecified) | -44.7% | 7.1 | 0.0% | 0.9 | -42.8%[inhibitor] | 4.0
COc1ccc(C(=O)/C=C/c2cn(CC(O)CN3CCCCCC3)c3ccccc23)cc1OC (stereo unspecified) | . | 11.0 | -4.2% | . | . | 9.7
CCCn1c(SC(C)C(=O)NC2CCCC(C)C2C)n[nH]c1=O (stereo unspecified) | . | 2.7 | 1.0% | . | -7.1% | -0.6
CCCCC(=O)Nc1ccc(OCc2cc(=O)n3ccc(C)cc3n2)cc1 | . | -0.2 | -9.7% | . | . | -0.6
Cc1ccc(C)c(NC(=O)C(NS(=O)(=O)c2ccc3c(c2)CCC(=O)N3)c2ccccc2)c1 (stereo unspecified) | . | -0.8 | 1.7% | . | . | 1.0
COc1ccc(C(=O)NN)cc1COc1ccc(Br)cc1 | 4.2% | -23.4 | 0.8% | 4.4 | -18.8% | -0.2
Cc1ccc(S(=O)(=O)N(C)c2ccccc2C(=O)Nc2c(F)cccc2F)cc1 | -4.5% | -16.1 | -4.2% | 7.1 | 10.7%[15.4 µM] | -0.9
Cc1ccc(N(CC(=O)N2CCCCCC2)S(C)(=O)=O)cc1Cl | -7.1% | -21.1 | 0.5% | -0.7 | 0.4% | -0.1
S=c1[nH]nc(-c2cc(-c3ccccc3)n[nH]2)n1/N=C/c1ccc(Br)s1 | ? | 22.1 | . | 1.3 | 13.0%[15.4 µM] | 3.1
COc1ccc(-c2ccc3c(c2)[C@@H]2C[C@H](N(C)C(=O)C(C)(C)C)[C@H]([C@H](C)O)C(=O)N2CC3)cc1 | -6.6% | -3.7 | -5.1% | . | . | 0.1
COc1ccccc1C1=NS(=O)(=O)N(C)C(C(=O)Nc2cc(OC)c(OC)c(OC)c2)=C1 | . | -19.3 | -6.0% | . | . | 1.4
CN(C)CCn1c2c(c(SCC(=O)Nc3ccc(F)cc3F)nc1=O)CCC2 | . | 20.5 | -5.3% | . | . | -0.4
CCC(=O)Nc1cc(-c2cn3cccnc3n2)ccc1OC | . | -8.1 | 4.6% | . | . | -0.2
CC(=O)N[C@@H](Cc1c[nH]c2ccccc12)C(=O)OCC(=O)Nc1cc(C)on1 | 5.2% | 0.5 | . | . | 2.6% | -0.1
O=S(=O)(c1ccc(OC(F)(F)F)cc1)N1CCC(O)(c2cccc(C(F)(F)F)c2)CC1 | -20.0% | 11.0 | 0.7% | -15.4 | -49.1%[inhibitor] | 4.9
CCOC(=O)c1sc(C)c2c1NC1(CCCCCC1)NC2=O | ? | 2.6 | ? | -0.9 | -3.5% | 1.5

# Retrieved by compound from above:
SMILES | gsp antag | TRPML1 blocker | ClpP mod | Menin MLL FP FL | gsp ag | TRPML1 agonist
Cc1ccc(C)c(NC(=O)C(NS(=O)(=O)c2ccc3c(c2)CCC(=O)N3)c2ccccc2)c1 (stereo unspecified) | . | -0.8 | 1.7% | . | . | 1.0
Oc1[nH]c2c(Cl)cc(Cl)cc2c1N=NC(=S)NCC1CCCO1 (stereo unspecified) | 11.2% | -1.9 | 0.6% | 0.2 | -0.8%[15.4 µM] | 1.3
O=C(CSc1nc2c(oc3ccccc32)c(=O)n1-c1ccccc1F)Nc1ccccc1 | . | -4.5 | -3.5% | . | . | -0.3
CCCCC(=O)Nc1ccc(OCc2cc(=O)n3ccc(C)cc3n2)cc1 | . | -0.2 | -9.7% | . | . | -0.6
CC(=O)N[C@@H](Cc1c[nH]c2ccccc12)C(=O)OCC(=O)Nc1cc(C)on1 | 5.2% | 0.5 | . | . | 2.6% | -0.1

# Compound profiles, from the list above:
# Profile of Cc1ccc(C)c(NC(=O)C(NS(=O)(=O)c2ccc3c(c2)CCC(=O)N3)c2ccccc2)c1 (stereo unspecified) → gsp antag = .; TRPML1 blocker = -0.8; ClpP mod = 1.7%; Menin MLL FP FL = .; gsp ag = .; TRPML1 agonist = 1.0
# Profile of Cc1ccc(NC(=O)C2C(c3ccccc3)C2(Cl)Cl)c(C)c1 (stereo unspecified) → gsp antag = -44.7%; TRPML1 blocker = 7.1; ClpP mod = 0.0%; Menin MLL FP FL = 0.9; gsp ag = -42.8%[inhibitor]; TRPML1 agonist = 4.0
# Profile of S=c1[nH]nc(-c2cc(-c3ccccc3)n[nH]2)n1/N=C/c1ccc(Br)s1 → gsp antag = ?; TRPML1 blocker = 22.1; ClpP mod = .; Menin MLL FP FL = 1.3; gsp ag = 13.0%[15.4 µM]; TRPML1 agonist = 3.1

# Other entries.
SMILES | gsp antag | TRPML1 blocker | ClpP mod | Menin MLL FP FL | gsp ag | TRPML1 agonist
COc1ccc(-c2cc3nc(C)cc(C)n3n2)cc1 | -5.4% | 2.1 | ? | 0.2 | 20.1% | 0.4
CCN(CC)C(=O)CSc1nc2c(sc(=S)n2-c2ccccc2)c(=O)[nH]1 | -15.4% | 49.1 | 1.0% | -1.8 | -15.9% | 1.6
CC1=C(C(N)=O)C(c2ccc(C(C)C)cc2)n2nc(SCc3ccccc3F)nc2N1 (stereo unspecified) | . | -8.0 | -0.8% | . | . | 0.4
COc1ccc2cc3cc(C(=O)NCCN4CCN(c5ccccc5F)CC4)oc3nc2c1 | -14.5% | 6.7 | 1.5% | 1.7 | 17.5% | -0.3
CC1=CCC[C@@H]2[C@@](C)(CC/C(C)=C/C(=O)O)[C@H](C)CC[C@@]12C | 1.9% | 9.7 | 0.8% | -1.2 | . | 0.3
Cc1ccc(S(=O)(=O)N2CC3(O)CN(C(=O)OC(C)C)N(C(=O)OC(C)C)CC3(OC(=O)NCc3ccco3)C2)cc1 (stereo unspecified) | . | -11.1 | -0.1% | . | -15.7% | -0.6
Cc1c(NC(=O)Nc2cc(Cl)ccc2Cl)c(=O)n(-c2ccccc2)n1C | 0.3% | 42.2 | -0.3% | . | -4.7%[15.4 µM] | -0.1
Cc1ccc(S(=O)(=O)N2CCN(S(C)(=O)=O)CC2)cc1 | 9.3% | -8.9 | -3.4% | . | -52.8%[inhibitor] | -0.2
CC(=O)c1ccc(N2CCN(C(=O)Nc3cn(CC(C)C)c(=O)c4ccccc34)CC2)cc1 | . | 6.9 | ? | . | . | 1.6
CCOc1ccc(C(=O)NCC(C)CN(C)C)cc1OCC (stereo unspecified) | 14.0% | -1.6 | -3.4% | 4.6 | -1.4% | 3.5
CC(=O)c1ccc(N2CCN(C(=O)CCNC(=O)Cn3ccc4ccccc4c3=O)CC2)cc1 | -10.6% | 1.6 | . | -0.6 | -6.6% | 0.1
Cc1ccc(C(=O)NC(N2CCCC2)C(Cl)(Cl)Cl)cc1 (stereo unspecified) | -0.6% | -10.1 | -7.1% | -0.8 | 1.3% | 0.2
c1ccc(-c2nnc(-c3ccccc3)o2)cc1 | -3.2% | 22.8 | -14.0% | 1.0 | 17.4% | 2.8
COc1ccc(OC)c(-n2c(SCC(=O)N3CCc4ccccc43)nc3c(c2=O)SCC3)c1 | 14.2% | 42.1 | 0.4% | 1.2 | -86.5%[inhibitor] | 1.0
CCSc1nn2c(=O)c3ccccc3nc2s1 | 0.8% | -5.4 | -0.3% | 0.3 | 21.9% | -0.9
Cn1cc(S(=O)(=O)c2ccc(Cl)cc2)c(=O)c2cc(F)c(N3CCCC3)cc21 | . | -11.5 | -25.0% | . | . | -0.4
COc1cc(NC(=O)COC(=O)CSc2cc(C)ccc2C)c(C)cc1[N+](=O)[O-] | -3.2% | 21.2 | 1.5% | -3.1 | ? | 1.8
C=CCn1c(=NC(=O)c2sc3ccccc3c2Cl)sc2cc(S(N)(=O)=O)ccc21 | -11.9% | -26.7 | 25.1µM* | 6.3 | 37.4%[15.4 µM] | 1.2
CCOc1ccc2[nH]c3c(c2c1)CNCC3 | -1.9% | -2.7 | -1.8% | 3.8 | -6.3% | 0.0
CC(=O)Cn1c(CN2CCCCC2)nc2ccccc2c1=O | -1.3% | -23.2 | 0.0% | 6.8 | ? | 0.7
Cc1cccc(C)c1OCC(=O)N/N=C/c1cccnc1 | 2.7% | -16.2 | . | -0.6 | 10.9%[15.4 µM] | 0.2
N#Cc1ccc(C(=O)OCCCc2cc3ccccc3c(=O)o2)cc1 | -17.2% | 26.0 | -0.9% | . | 4.6% | 0.0
O=C(N/N=C/C=C/c1ccccc1[N+](=O)[O-])c1ccncc1 | -0.1% | -11.2 | . | 2.1 | ? | 0.4
O=Cc1ccc(-n2cc(C=O)c3ccccc32)cc1 | 0.1% | -9.9 | . | 0.3 | 0.5%[15.4 µM] | -0.2

# Source: PubChem (National Center for Advancing Translational Sciences (NCATS))
